# Screening results from PubChem.
# VDR inhibitor = blocks the human vitamin D receptor; VDR-SRC2-3 peptide fluorescence polarization, 2 h; 0.93% of 400,000 active; AID 504847; Potency, µM, for inactives: max response, negative = inhibition, hits mostly inhibitors; active = well fitted inhibition curve with a large enough effect; inconclusive = small, poorly fitted or top-dose-only effect, or another doubt; inactive = no such curve, though single readings can be large or run the other way; note: series mostly up to about 120 µM
# Target sequence (P11473 whole entry, looked up): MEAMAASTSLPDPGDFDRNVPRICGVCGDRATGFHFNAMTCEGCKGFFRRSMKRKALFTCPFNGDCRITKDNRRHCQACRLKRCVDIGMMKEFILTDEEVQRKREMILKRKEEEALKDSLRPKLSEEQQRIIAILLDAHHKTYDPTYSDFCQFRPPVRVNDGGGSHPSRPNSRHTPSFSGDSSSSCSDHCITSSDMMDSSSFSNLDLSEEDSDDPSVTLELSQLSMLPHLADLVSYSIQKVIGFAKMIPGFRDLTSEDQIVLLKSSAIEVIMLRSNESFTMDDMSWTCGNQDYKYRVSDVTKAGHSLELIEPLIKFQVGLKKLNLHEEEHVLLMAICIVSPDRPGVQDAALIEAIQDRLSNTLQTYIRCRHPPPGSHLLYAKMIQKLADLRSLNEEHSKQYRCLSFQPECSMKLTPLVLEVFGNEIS
#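 VDR–SRC2-3 interaction, FP format. Cmpds 23 nl via pintool, brief spin, 2 h ambient incubation.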
# An asterisk follows results filed as active; ? = inconclusive; & = joins results of further samples; [ ] = remark or other dose. % is set by controls: 0 for no effect and ±100 for the full control effect; potency is the fitted concentration of half-maximal effect. These rows are one share of the data. The share of hits here may be higher or lower than overall.
Molecule	VDR inhibitor
CN(c1ccc(C(=O)NCc2ccncc2)cc1)S(=O)(=O)c1ccc(Cl)cc1	-3%
O=c1c2cn[nH]c2[nH]c(=S)n1-c1ccccc1Cl	-13%
Cc1ccc(C(=O)Nc2ccc(-n3c(C)nc4ccccc4c3=O)cc2)cc1[N+](=O)[O-]	6%
C[C@H](NC(=O)c1ccc(Br)cc1)C(=O)NCc1ccc(S(N)(=O)=O)cc1	-11%
COc1ccc(CC(=O)Nc2ccc(-c3cn4ccccc4n3)cc2)cc1	6%
CN(C)c1nc(-c2cccnc2)nc(-c2ccc(Cl)cc2)c1C#N	11%
N#Cc1nc(-c2ccccc2)oc1NCCN1CCCCC1	53%[activator]
COc1ccc(NS(=O)(=O)c2ccc(O)c(C(=O)OCC(=O)N3CC(C)OC(C)C3)c2)cc1 (stereo unspecified)	11%
CC(=O)N1CCN(CC(=O)Nc2cc(S(=O)(=O)N3CCCCC3)ccc2C)CC1	-11%
CCOC(=O)c1sc2nc(C)nc(Nc3ccccc3)c2c1C	-19%
COc1ccc(NC(=S)N2CCCC(c3nc4ccc(C)cc4[nH]3)C2)c(OC)c1 (stereo unspecified)	-12%
Nc1cccc(C(=O)Nc2ccco2)c1	-4%

Molecule	VDR inhibitor
O=C(CCCl)Nc1nc2c(s1)CCc1ccccc1-2	3%
O=C(NC1=CC(=O)c2ccccc2C1=O)c1ccccc1	11µM*
COc1cccc2c(C)c(C(=O)O)[nH]c12	-5%
O=C(Nc1ccc(F)cc1)Nc1cnccn1	21%
CNC(=O)Nc1ccc(S(N)(=O)=O)cc1	-4%
COc1ccccc1/C=C/C(=O)NCc1cccnc1	-14%
Nc1c(C(=O)Nc2ccc(OC(F)(F)F)cc2)nnn1Cc1ccccc1	-9%
COc1ccc(OC)c(NC(=O)c2ccc(-c3cccs3)cc2)c1	-13%
CCn1c(SCC(=O)NC(=O)c2ccccc2OC)nc2ccccc21	10%
Cc1nnc2c3ccccc3c(-c3cccs3)nn12	-16%
CC(C)CN(CC(C)C)CC(O)COc1ccc([N+](=O)[O-])cc1 (stereo unspecified)	-4%
O=c1[nH]c(S)nc2sc3c(c12)CCCC3	-27%

Molecule	VDR inhibitor
COc1cccc(/C=C/C(=O)NNC(=O)c2ccco2)c1OC	-1%
CCCc1[nH]nc2c1C(c1ccoc1)C(C#N)=C(N)O2 (stereo unspecified)	-13%
COc1cc2c(=O)n(Cc3ccccc3)c(=O)n(CC(=O)Nc3cc(C(F)(F)F)ccc3Cl)c2cc1OC	11%
CN1C(=O)c2ccc(C(=O)Nc3cccnc3)cc2C1=O	8%
COCC(C)n1c(C)cc(C(=O)COC(=O)c2nn(C)c(=O)c3ccccc23)c1C (stereo unspecified)	-5%
CCCn1cnc2cc(NC(=O)c3cccs3)ccc21	-15%
CCN(CC)S(=O)(=O)c1ccc(N)cc1	-12%
Cc1ccc(N/C=C/C(=O)c2ccccc2)cc1C	-5%
CC(C)(C)[C@H]1CCC(=O)N([C@H](CSc2ccc(Br)cc2)Cc2ccccc2)CC1	-8%
O=C(NCc1ccco1)C(=O)NCc1ccccc1Cl	9%
O=C(Cc1ccc(NC(=O)C2CCCN(C(=O)CCc3ccccc3)C2)cc1)Nc1cccc(C(=O)N2CCCC2)c1 (stereo unspecified)	-10%
O=C(Nc1ccnn1C1CCN(Cc2cccc(OCCO)c2)CC1)c1cccc(F)c1	0%

Molecule	VDR inhibitor
COc1cccc(Cn2c(=O)c(-c3cccc(C#N)c3)nc3cnc(N4CCOCC4)nc32)c1	3%
CC(=O)c1c(NC(=O)c2ccccc2)[nH]c(-c2ccccc2)nc1=S	35%[activator]
O=C(C[n+]1ccc(-c2nnc3n2CCC3)cc1)c1ccc(Cl)c(Cl)c1	?
Cc1ccc(Cn2c(CNC(=O)c3ccc(Cl)c([N+](=O)[O-])c3)nc3cccnc32)cc1	6%
COc1cc(C=O)ccc1OCc1c(C)noc1C	22%
CC(C)C(=O)Nc1c(-c2ccccc2)c(=O)c2ccccc2n1C	-5%
N#CC1(NC(=O)CN2C(=O)c3ccc([N+](=O)[O-])cc3C2=O)CCCCC1	-6%
ClC(Cl)Cl	16%
O=[N+]([O-])c1cc(S(=O)(=O)NC2=NCCCCC2)ccc1NCC1CCCCC1	-2%
N#C/C(=C\c1ccncc1)c1nc2c(s1)CCCC2	15%
COc1cc(/C=N/NC(=O)c2ccc(-c3ccccc3)cc2)cc(OC)c1OC	-8%
CCN(C[C@H]1N[C@@](C)(C(=O)OC)[C@H]2C(=O)N(Cc3ccccc3)C(=O)[C@@H]12)C(=O)c1ccc(F)cc1	5%

Molecule	VDR inhibitor
COc1ccc(C(=O)COc2ncnc3cc(Cl)ccc23)cc1	-2%
Nc1nonc1-c1nc2ccccc2n1CC(=O)Nc1ccccc1C(=O)O	-11%
Cc1cccc(CNC(=O)c2cnc3sc(N4CCOCC4)nn3c2=O)c1	10%
CCOc1ccc(C(=O)NNC(=O)CN2C(=O)NC3(CCCC3)C2=O)cc1	-25%
Cc1ccc(C(NC(=O)c2ccccc2S(C)(=O)=O)c2ccccc2)cc1 (stereo unspecified)	1%
Cc1cc(C)cc(NC(=O)CSc2nnc(-c3ccccc3Br)o2)c1	1%
Cc1c(C(=O)Nc2ccc(F)c(C(F)(F)F)c2)sc2nc(-c3ccccc3)cn12	17%
COc1cc(N2N=C(c3ccccc3)CC2c2ccccc2)c(C=O)cc1C=O (stereo unspecified)	2%
C=CCNC(=O)/C(=C\c1cccc([N+](=O)[O-])c1)NC(=O)c1ccccc1	2%
Cc1nc2[nH]c(=O)n(O)c(=O)c2s1	2%
CCOC(=O)CC1COc2ccccc2N1C(=O)c1cccc([N+](=O)[O-])c1 (stereo unspecified)	-15%
CCOC(=O)C1=C(CN2CCN(CC)CC2)NC(=O)NC1c1ccc(Cl)cc1 (stereo unspecified)	-13%

Molecule	VDR inhibitor
COc1ccc(N2CCN(S(=O)(=O)c3ccc4c(c3)NC(=O)C(C)C(=O)N4)CC2)cc1 (stereo unspecified)	-4%
Cc1[nH]c2ccccc2c1/C=C(/C#N)C(=O)NC(C)C	24%
Cc1noc(C)c1C(=O)NC(C)c1ccc2c(c1)OCO2 (stereo unspecified)	-7%
CCN1CCN(CCC(=O)Nc2cccc(OC)c2)CC1	4%
S=C(NC1CC2CCC1C2)N1CCN(c2cccc(Cl)c2)CC1 (stereo unspecified)	11%
CN(Cc1ccccc1)C(=O)c1ccc(NC(=O)Cc2cccc(NC(=O)C3CCN(C(=O)C4CCC4)CC3)c2)cc1	?
CC(c1ccccc1)C(NC(=O)OCC1c2ccccc2-c2ccccc21)C(=O)O (stereo unspecified)	?
CSc1cccc(NC(=O)CSc2ccccc2)c1	0%
O=C(N/N=C/c1ccco1)c1cccc(NC(=O)c2ccccc2Cl)c1	1%
CC1CC(C)CN(C(=O)CSc2nnc(-c3ccco3)o2)C1 (stereo unspecified)	19%
O=C(Cc1cc(=O)[nH][nH]1)N/N=C/c1c(Cl)cccc1Cl	-27%&-14%
Cc1ccc(OCC(=O)Nc2ccc(S(=O)(=O)Nc3ccccn3)cc2)cc1C	-5%

# Brought forward from above: 6 compounds, then new ones.
Molecule	VDR inhibitor
CC(c1ccccc1)C(NC(=O)OCC1c2ccccc2-c2ccccc21)C(=O)O (stereo unspecified)	?
CSc1cccc(NC(=O)CSc2ccccc2)c1	0%
O=C(N/N=C/c1ccco1)c1cccc(NC(=O)c2ccccc2Cl)c1	1%
CC1CC(C)CN(C(=O)CSc2nnc(-c3ccco3)o2)C1 (stereo unspecified)	19%
O=C(Cc1cc(=O)[nH][nH]1)N/N=C/c1c(Cl)cccc1Cl	-27%&-14%
Cc1ccc(OCC(=O)Nc2ccc(S(=O)(=O)Nc3ccccn3)cc2)cc1C	-5%
O=C(N/N=C/c1cccc(OC(=O)c2cccc(Br)c2)c1)c1cccnc1	-5%
O=C(Nc1ccccc1O)c1ccc(NC(=O)C2CC2)cc1	17%
Cc1ccc(S(=O)(=O)NC2=NCN(CCOC(=O)c3ccc([N+](=O)[O-])cc3)CN2)cc1	3%
CCOC(=O)c1ccccc1CN1C(=O)c2ccccc2S1(=O)=O	-2%
Cc1ccccc1CSc1nnc(-c2ccccn2)n1N	-1%
Clc1ccc2oc(SCc3cccnc3)nc2c1	-13%
Cc1ccc(-n2cnc3cc(C(=O)NC4CCCCCC4)ccc32)c(C)c1	19%
Cc1ccc2c(c1)C(=O)c1ccccc1CS2=O (stereo unspecified)	-6%
COc1ccccc1NS(=O)(=O)c1cc(NC(=O)c2cc(=O)[nH]c3ccccc23)ccc1N1CCOCC1	7%
Cc1noc(C)c1NC(=O)Nc1cccc2c1O[C@@H](CN(C)C)[C@@H](C)CN([C@H](C)CO)C2=O	4%
CCC(C)[C@H](NC(=O)NCc1cccc(OC)c1)C(=O)O (stereo partly specified)	5%
Cc1cc(C)c(NC(=O)Cn2c(=O)n(Cc3ccc(C(=O)NCc4ccco4)cc3)c(=O)c3sccc32)c(C)c1	16%

Molecule	VDR inhibitor
O=C(CN1C(=O)CSc2ccc(S(=O)(=O)N3CCCCC3)cc21)NCc1cccnc1	16%
CCN1C[C@@H]2[C@@H]3C(=O)N(Cc4ccccc4)C(=O)[C@@H]3[C@](C)(C1=O)N2C(=O)c1ccc(Cl)cc1	9%
O=C(NCc1ccco1)c1ccc(Cn2c(SCc3ccccc3F)nc3cccnc32)cc1	8%
O=C(CCCn1c(=O)c2ccccc2n(Cc2cccc(F)c2)c1=O)NCc1ccccc1Cl	?
CN(C)c1ccc(P(=O)(OCc2ccccc2)C(O)c2ccccc2)cc1 (stereo unspecified)	8%
CCOc1nc(Nc2ccccc2)nc(OCC)n1	-10%
CCOC(=O)c1cnc(SCC(=O)Nc2nnc(CC)s2)nc1N	17%
O=C(Nc1cccc(C(=O)OCc2cc(=O)n3nc(C4CC4)sc3n2)c1)c1cccc(Cl)c1	1%
CCOC(=O)c1ccc(N/C=C\C(=O)c2cccc(OC)c2)cc1	-13%
COc1ccc(N2C(=NC(=O)C3CCCCC3)SC3CS(=O)(=O)CC32)cc1 (stereo unspecified)	1%
COc1cccc(-c2nc3c(c(SCC(=O)Nc4cccc(C)c4C)n2)Cc2c(CO)cnc(C)c2O3)c1	12%
Cn1c(=O)c2c(SCC(=O)N3CCCC3)nc(CC(C)(C)C)nc2n(C)c1=O	3%

Molecule	VDR inhibitor
CCOC(=O)c1c(NC(=S)NCC2CCCO2)sc(C)c1C (stereo unspecified)	89µM*
N[C@H](CSCc1ccccc1)C(=O)Nc1ccc([N+](=O)[O-])cc1	-2%
CCc1cc(=O)oc2cc(OCc3nn[nH]n3)ccc12	-11%
CCCCC/C=N\NC(=O)Cc1ccc([N+](=O)[O-])cc1	-14%
COC(=O)c1ccc(NC(=O)CN2CCN(c3ccccn3)CC2)cc1	-12%
Cc1csc(NC(=O)CCCNC(=O)c2ccc(Cl)cc2)n1	2%
CC(NC(=O)COC(=O)/C=C/c1ccco1)c1ccccc1 (stereo unspecified)	1%
Cc1cc(-n2cnnn2)cc(C)c1S(=O)(=O)NCCOc1ccccc1	9%
O=Cc1ccc(-c2cc(Cl)ccc2Cl)[nH]1	12%
CSCc1ccc(C(=O)NC2CC(C)(C)Cc3c2cnn3-c2ccc(F)cc2)o1 (stereo unspecified)	-25%
COc1ccc(-c2ccc(N)[n+](CCCC(=O)O)n2)cc1	3%&-18%&0%
O=C(CCCCCN1C(=O)c2cccc3cccc(c23)C1=O)NC1CCS(=O)(=O)C1 (stereo unspecified)	4%

Molecule	VDR inhibitor
O=C1CCCCC1Sc1ccc(Cl)cc1[N+](=O)[O-] (stereo unspecified)	?
COC(=O)C1CCN(C(=O)Cn2nnc(-c3ccccc3)n2)CC1	9%
Cc1ccc([N+](=O)[O-])c(NC2OC(CO)C(O)C2O)c1 (stereo unspecified)	-8%
Cn1c(=O)c2c(-c3ccccc3Cl)n(Cc3ccc(Cl)cc3)cc2n(C)c1=O	-7%
COCCn1c(C)c(C(=O)O)sc1=S	11%
CCOC(=O)c1c(NCCN(C)C)c2ccccc2[nH]c1=O	-2%
c1ccc(-c2c[n+]3c(n2-c2ccccc2)SCC3)cc1	30%[activator]
COc1ccc2c(c1)c(=O)c(C(=O)c1ccc(Cl)cc1)cn2CC(=O)Nc1ccc(F)cc1	4%
Cc1ccc(C(NC(N)=O)c2ccccc2)cc1 (stereo unspecified)	-16%
Cc1ccc(NC(=S)NNc2ccc(C(=O)O)cc2[N+](=O)[O-])cc1C	-22%
O=C(NNC(=O)c1cc2ccccc2o1)c1ccncc1	25%
COc1ccc(N2CCN(C(=O)c3cc4c(-c5ccc(Cl)cc5)nn(C)c4s3)CC2)cc1	-1%

# Random excerpt: three compounds from above, in no set order.
Molecule	VDR inhibitor
CN(c1ccc(C(=O)NCc2ccncc2)cc1)S(=O)(=O)c1ccc(Cl)cc1	-3%
CN1C(=O)c2ccc(C(=O)Nc3cccnc3)cc2C1=O	8%
COc1ccccc1/C=C/C(=O)NCc1cccnc1	-14%

# (continued)
Molecule	VDR inhibitor
COc1cc(NC(=O)CN(C)S(=O)(=O)c2ccc3c(c2)CCC(=O)N3)cc(OC)c1	-14%
Cc1ccc(-c2nnc(SCC(=O)Nc3nccs3)n2N)cc1	-15%
O=C(O)C1CCCN1C(=O)OCc1ccccc1 (stereo unspecified)	15%
COCCc1nn2c(=O)cc(COC(=O)c3ccc4c(c3)OCO4)nc2s1	-3%
CCCCCN(C(=O)CCC(=O)OCC(=O)c1c(C)cc(C)cc1C)c1c(N)n(CCCC)c(=O)[nH]c1=O	4%
Cc1ccc(CNc2ccc(-c3nc(-c4ccco4)no3)cc2[N+](=O)[O-])cc1	14%
CCOC(=O)Cc1csc(NC(=O)c2ccc(Br)o2)n1	-18%
